From PubChem BioAssay
HSD17B inh: inhibitors of human HSD17B10 dehydrogenase; Q99714; recombinant HSD17B10, NADH fluorescence kinetic; many of its hits are not listed in these tables; Potency, µM (doses to about 57.1 µM), without a hit: at the top dose activity change, negative = inhibition, most hits filed as inhibitors; 75,000 tested, 7.6% active; active = well fitted inhibition curve with a large enough effect; inconclusive = small, poorly fitted or top-dose-only effect; inactive = no such curve, though single readings can be large or run the other way;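 note: the protocol describes HADH2 (HSD17B10) and not the HSD17B4 of the title; nearly all actives have a fitted effect of over 70% in size; most hits overshoot -100% by far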
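His-tagged E. coli-expressed HADH2 at 20 nM in 100 mM Tris-HCl pH 9.0 with 0.01 % Tween-20, preincubated 15 min with compound at room temperature. Reaction with 1 mM NAD+ and 90 uM beta-hydroxybutyryl coenzyme A; NADH fluorescence (360/450 nm) read kinetically over 4 min, last minus first point.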
Active calls of the source: *; i = inactive; ? = inconclusive; [ ] = remark or other dose. % is set by controls: 0 for no effect and ±100 for the full control effect; potency is the fitted concentration of half-maximal effect.

The opening 3 compounds, ahead of the listing:
SMILES	HSD17B inh
CCCc1cc(C(=O)NCc2ccco2)no1	-4.3%
O=C(Nc1nc(-c2ccco2)cs1)c1ccccc1	-29.3%
CC(=O)Nc1ccccc1OCC(=O)c1cc(C)n(Cc2cccs2)c1C	-8.0%

Results, from the start:
SMILES	HSD17B inh
CCCc1cc(C(=O)NCc2ccco2)no1	-4.3%
O=C(Nc1nc(-c2ccco2)cs1)c1ccccc1	-29.3%
CC(=O)Nc1ccccc1OCC(=O)c1cc(C)n(Cc2cccs2)c1C	-8.0%
CC1OC2C(OC1C)N(S(C)(=O)=O)CCN2S(C)(=O)=O (stereo unspecified)	-1.4%
Cc1ccc(-n2nc(C)c3c2OC(N)=C(C#N)C3c2ccc(F)cc2)cc1 (stereo unspecified)	-12.2%
O=C(CSc1ccccn1)Nc1ccc(Br)cn1	1.9%
N#C[C@H](Cc1ccc(O)cc1)c1ccc(O)cc1	5.1%
Cc1cc(N)n2nc(-c3ccccc3)cc2n1	12.7%
CC1(C)CC(=O)C2=C(C1)Oc1ncn(CCCn3ccnc3)c(=N)c1C2c1ccccc1 (stereo unspecified)	7.7%
O=c1c(-c2ccc(Cl)cc2)nc2cnc(N3CCOCC3)nc2n1C1CC1	1.9%
Cc1nn(-c2ccccc2)c2c1C(c1cccnc1)N1C=C(S(=O)(=O)N3CCCCC3)C=CC1=N2 (stereo unspecified)	-15.6%
COc1cc(C(=O)Nc2cc(C)ccn2)cc(OC)c1OC	-2.3%
O=C(CSc1ncccn1)NCc1ccccc1	4.7%
O=C(CN1C(=O)C2CC=CCC2C1=O)Nc1ccc(-c2nnc3n2CCCCC3)cc1 (stereo unspecified)	6.9%
CC1CCC(NC(=O)C2c3ccccc3C(=O)N2CCCN2CCOCC2)CC1 (stereo unspecified)	2.9%
CCCc1nc2oc3c(NCC4CCCO4)ncnc3c2c2c1COC(C)(C)C2 (stereo unspecified)	3.16µM*
NC(=O)c1oc2ccc(Cl)cc2c1N	31.6µM*
FC(F)(F)c1ccccc1-c1nc(NC2CCNCC2)c2ccccc2n1	0.7%
O=C(NC(C(=O)c1ccccc1)n1ccc(=O)[nH]c1=O)c1ccccc1 (stereo unspecified)	-2.4%
COc1cccc(NC(=O)CSc2nc(N)cc(N)n2)c1	5.5%
CC(C)CN(CC(C)C)S(=O)(=O)N1CCC(C(=O)NCc2ccccn2)CC1	2.1%
Cc1ccccc1NC(=O)CCC(=O)OCCCC(F)(F)C(F)(F)F	5.0%
CC1(C)CC(=O)C(C=NCCN2CCNC2=O)=C(O)C1	-0.5%
COc1c(NC(C)=O)c2ccccc2c2ccccc12	3.1%[11.4 µM]
OC(c1ccc(Cl)cc1Cl)C(Cc1cccnc1)n1cncn1 (stereo unspecified)	19.4%
COc1ccc(S(=O)(=O)NCc2ccco2)c2ccccc12	-8.3%
CCOC(=O)C1CCCN(Cc2ccc(O)c(OC)c2)C1 (stereo unspecified)	-3.8%
O=C(Cn1cnc2c(nnn2Cc2ccc(F)cc2)c1=O)NC1CCCC1	7.6%
CC(c1ccccc1F)n1cc(C(=O)NCc2ccncc2)nn1 (stereo unspecified)	2.5%
COc1cc(C2C(C#N)=C(N)Oc3n[nH]c(-c4ccncc4)c32)cc(OC)c1OC (stereo unspecified)	-2.9%
Cc1ccc(C)c(NC(=O)c2ccccn2)c1	2.5%
Cc1cc2ncn(CC(O)COc3cccc(C(=O)O)c3)c2cc1C (stereo unspecified)	1.9%
O=c1c2ccccc2nnn1CSc1nnc2ccccn12	2.3%
Cc1csc(Cn2c(CN(C)C)nc3ccccc3c2=O)n1	13.3%
CS(=O)(=O)N(CC(=O)N1CCCCC1)c1sc2c(c1C#N)CCCC2	-7.7%
COCCN(C(=O)c1ccccc1)c1nnc(-c2cccnc2)s1	37.6%[activator]
CC1(C(=O)O)CC(C)(C(=O)O)CC(C)(C(=O)O)C1 (stereo unspecified)	4.2%
COc1ccc(OC)c(NC(=O)CSC2=NCCS2)c1	1.1%
CC(=O)Nc1ccccc1C=C1c2ccccc2-c2ccccc21	7.7%[11.4 µM]
CNc1nc(C)c(C(=O)OCC(=O)OC)s1	8.4%
CCOC(=O)N(Cc1ccccc1)C(C(=O)O)C(C(=O)O)N(Cc1ccccc1)C(=O)OCC (stereo unspecified)	10.1%
CC12CCC(C(=O)NCc3cccnc3)(OC1=O)C2(C)C (stereo unspecified)	4.5%
COC(=O)c1cccc(NC(=O)c2nn(C(C)C)c(=O)c3ccccc23)c1	?
COc1ccccc1NS(=O)(=O)c1cccc2cccnc12	6.7%
C=CCSc1nc(N)c(C(=O)Nc2ccccc2C)cc1C(N)=O	-12.1%
CC(C)COC(=O)NCCCOC(=O)Nc1ccccc1	7.4%
COc1ccc(NC(=O)c2cc(C(C)C)on2)cc1OC	1.4%
COc1ccccc1-c1c(C)nn2c(N3CCN(c4ccccc4OC)CC3)cc(C)nc12	?
OCCN1CCN(CC/C=C2\c3ccccc3Sc3ccc(C(F)(F)F)cc32)CC1	-8.9%[25.6 µM]
O=C(Cn1cc2c(n1)CCCCC2)NCCN1CCOCC1	5.2%
O=C1c2ccccc2-c2nc3ncnn3c(-c3ccccc3Cl)c21	1.9%
CC(C)N(Cc1cc2ccccc2[nH]c1=O)C(=O)C1CCCCC1	?
CCCn1c(=O)[nH]c(=O)c2c1nc(-c1ccccc1OC(F)F)n2CCOC	25.1µM*
CC(C)C[C@H](NC(=O)Nc1cccc(Cl)c1)C(=O)O	15.8%
COc1ccc(-c2cc(C(=O)OCC(=O)N(C)C)c3ccccc3n2)cc1	i
N#Cc1nc(-c2ccc(OCc3ccccc3)cc2)oc1N1CCOCC1	25.1µM*
CCOC(=O)COc1cc2c(C(=O)OCC)c(C)oc2cc1Br	6.9%
OC12CCCCC1C(c1ccc3c(c1)OCO3)N(Cc1ccc(F)cc1)CC2 (stereo unspecified)	-3.2%
CCOC(=O)c1c(N)c(C#N)c2n1CCCCC2	-1.6%
CCOc1ccc2nc(NC(=O)C(CC)Sc3nc(C)cc(=O)[nH]3)sc2c1 (stereo unspecified)	?

Continued:
SMILES	HSD17B inh
CC(C)Cn1c(SCC(=O)N2CCN(S(=O)(=O)c3ccccc3)CC2)nc2ccccc21	-1.0%
CCCCC(=O)OCCNC(=O)c1cc2ccccc2oc1=O	25.1µM*
O=C(CCC1CCCCC1)Nc1ncn[nH]1	3.8%
COc1ccccc1-c1cc(Nc2ccn[nH]2)ncn1	2.0%
CC1(C)Cc2ccccc2-c2nnnn21	7.4%
O=C(NO)c1ccccc1	-2.3%
Cc1oc2ccccc2c1-c1cn2c(n1)SCC2	i
COc1ccccc1C(OC(=O)c1cccs1)C(=O)NCc1ccco1 (stereo unspecified)	-22.2%
CCn1c(C(=O)N2CCC(C(=O)N3CCN(c4ccccn4)CC3)CC2)cc2sccc21	?
Cc1cc2nc3[nH]c4c(Cl)cc(Cl)cc4c3nc2cc1C	-3.3%[11.4 µM]
O=C(OCC(=O)N1CCN(C(=O)c2ccco2)CC1)c1cc(-c2ccccc2)nc2ccccc12	25.1µM*
Cc1ccnc(N2CCC(C(=O)Nc3cccc(C(F)(F)F)c3)CC2)n1	?
c1ccc(Cc2nn3c(Cn4nnc5ccccc54)nnc3s2)cc1	-29.2%
CCCCN(Cc1cc2cc(OC)ccc2[nH]c1=O)C(=O)COc1ccccc1	?
O=C(Nc1cccc(S(=O)(=O)C(F)F)c1)c1ccc(Cl)c(S(=O)(=O)N2CCOCC2)c1	31.6µM*
CCc1ccc(-c2nc(CN3CCC(C(=O)NCc4ccco4)CC3)c(C)o2)cc1	0.7%
CCn1c2ccccc2c2cc(NC(=O)CSc3nnc(-c4ccccc4OC)n3N)ccc21	5.2%
O=C(Nc1ccc(OC(F)F)c(Cl)c1)Nc1ccc2c(c1)OCO2	-1.7%
CC1(C)CC(=O)C2=C(C1)Nc1nc(SCCN3CCOCC3)[nH]c(=O)c1C2c1cccs1 (stereo unspecified)	?
CC(=O)NC(Cc1ccccc1C)C(=O)NC1CCN(c2c3c(nc4ncnn24)CCC3)CC1 (stereo unspecified)	-1.9%
CC(C)c1ccc(C2CC(=O)N3CN(C)CSC3=C2C#N)cc1 (stereo unspecified)	25.1µM*
COc1ccc(S(=O)(=O)n2cnc3cc(C)c(C)cc32)cc1C	2.2%
Cc1cc2oc(=O)cc(CN3CCCCC3C)c2c(C)c1Cl (stereo unspecified)	6.2%
O=C(CSc1ncnc2ccccc12)N1CCN(c2ccccc2)CC1	3.7%
COc1ccc(NC(=O)c2cc3cc(OC)ccc3oc2=N)cc1	31.6µM*
CCOC(=O)N1CCN(C(=O)C2CCN(S(=O)(=O)N(CC)CC)CC2)CC1	7.1%
CCOC(=O)N1CCC(c2cc(=O)n3[nH]cc(C(=O)OC)c3n2)CC1	-1.5%
COc1ccccc1S(=O)(=O)Cc1ccc(C(=O)NCc2ccc3c(c2)OCO3)o1	-2.8%
O=C(CSc1nnc(-c2ccc(O)cc2)o1)N1CCOCC1	-0.3%
O=C(O)c1[nH]c2ccc(Cl)cc2c1CC(=O)N1CCN(C(=O)c2ccco2)CC1	-25.8%
CC1CCN(CCCNC(=O)C2CCC(=O)N2C2CCCC2)CC1 (stereo unspecified)	7.4%
Nc1ccc2c(c1)C(=O)N(CC1CCCO1)C2=O (stereo unspecified)	44.2%[activator]
CCOC(=O)N1CCC(NC(=O)c2sc3nc4n(c(=O)c3c2C)CCCC4)CC1	-2.1%
CCOc1ccc2nc(NC(=O)CN3CCN(c4ccccn4)CC3)sc2c1	-5.6%
O=C1CC2CS(=O)(=O)CC2N1C1CCCCC1 (stereo unspecified)	-0.4%
CCOC(=O)c1ccc(NC(=O)C2CCN(S(=O)(=O)c3ccccc3)CC2)cc1	-5.1%
O=C(O)C1CC(=O)N(c2ccc(F)c(F)c2)C1 (stereo unspecified)	9.8%
Cc1noc(C)c1CSc1nc2sc(C)c(C)c2c(=O)n1C1CCCC1	-6.0%
CN(C)CCCNC(CC(=O)Nc1ccc(Cl)cc1)C(=O)O (stereo unspecified)	-2.0%
Cn1c(=O)oc2cc(S(=O)(=O)Nc3ccc4c(c3)OCO4)ccc21	-10.8%
CN(C)S(=O)(=O)c1ccc(C(=O)Nc2ccccn2)cc1	-2.1%
O=C(NCc1cccnc1)NC1(C(F)(F)F)Oc2ccc(Cl)cc2O1 (stereo unspecified)	3.9%
O=C(CCS(=O)(=O)Cc1ccccc1)NCC1CCCO1 (stereo unspecified)	3.4%
CCCCCCc1c(O)c2ccccc2[nH]c1=O	31.6µM*
COc1cccc(-n2ccnc2SCC(=O)NCc2ccccc2)c1	-11.4%
CCC(=O)Nc1cc2nn(-c3ccc(OC)cc3)nc2cc1C	3.16µM*
C=CCNc1nnc(C)c2ccccc12	-10.5%
CCOc1ccccc1OCC(=O)NCc1ccco1	-11.6%
Cn1c(SCC(=O)O)nc2ccccc2c1=O	1.2%
CC(CCc1ccccc1)NC(=O)CN1CCN(Cc2ccccc2)C1=O (stereo unspecified)	16.1%
CC(=O)Oc1cc2c(C(C)=O)coc2c2ccccc12	3.9%
CCN(CC)CCN1C(=O)C(O)=C(C(=O)c2sc(C)nc2C)C1c1cccnc1 (stereo unspecified)	0.4%
CC(C)NC(=O)c1cccc(Cn2cc(Cl)cn2)c1	20.1%
COc1ccc(C(=O)Nc2ccc(N3CCN(c4ccc(OC)cc4)CC3)c(C#N)c2)cc1	?
O=C(NCc1ccccn1)c1cccs1	-3.9%
CCn1nc(NC(=O)c2ccncc2)c2cc3ccc(C)cc3nc21	461.1%[activator]
COc1cc(NC(=O)C2CCCC2)c(OC)cc1Cl	3.2%
Cc1cc(NC(=O)CSc2nc3ccccc3c(=O)n2CCCC(=O)NCc2ccco2)n[nH]1	1.0%
COc1ccc(CN2CC(C(=O)NCc3cccc(OC)c3)CC2=O)cc1 (stereo unspecified)	-24.3%
COc1ccc(CCNS(=O)(=O)c2cccc(C(=O)O)c2)cc1OC	10.0%

(more compounds)
SMILES	HSD17B inh
COc1ccccc1CCn1c(=O)c(-c2ccccc2)nc2cncnc21	-8.1%
CC1(N2CCCCC2)CC2(O)C(=[N+]1[O-])CCC/C2=N\O (stereo unspecified)	3.6%
Cc1onc(-c2ccccc2)c1C(=O)Nc1ccc(OC(C)C)cc1	-8.7%
CC1CCCC(C)N1Cc1cn2ccccc2n1 (stereo unspecified)	31.6µM*
Cc1ccc2cc(C#N)c(NCc3ccco3)nc2c1	31.6µM*
N#Cc1c(-c2ccccc2)no[n+]1[O-]	-2.8%
Cc1cc(NC(=O)C2CCCN(S(=O)(=O)c3c(C)noc3C)C2)no1 (stereo unspecified)	4.3%
O=c1c2ccccc2[nH]c(=S)n1CCN1CCN(Cc2ccccc2)CC1	-5.3%
COc1ccc(-c2nc3cncnc3n(-c3ccccc3)c2=O)cc1	-22.8%
c1cc(CSc2ncnc3nc[nH]c23)ccn1	10.3%[11.4 µM]
CCn1c(=O)cc(OCC(=O)Nc2ccccc2N2CCN(C)CC2)c2ccccc21	-3.1%
COc1cc(C(=O)NCC(c2ccco2)N2CCCC2)ccc1OCc1c(C)noc1C (stereo unspecified)	-0.6%

Another view of some results above:
CC1CCCC(C)N1Cc1cn2ccccc2n1 (stereo unspecified)
  HSD17B inh = 31.6µM*

Cc1ccc2cc(C#N)c(NCc3ccco3)nc2c1
  HSD17B inh = 31.6µM*

N#Cc1c(-c2ccccc2)no[n+]1[O-]
  HSD17B inh = -2.8%

Cc1cc(NC(=O)C2CCCN(S(=O)(=O)c3c(C)noc3C)C2)no1 (stereo unspecified)
  HSD17B inh = 4.3%

Only part of the results is shown; count on the stated rates, not on these rows.
